gsp agonist – qHTS for Agonist of gsp, the Etiologic Mutation Responsible for Fibrous Dysplasia/McCune-Albright Syndrome: qHTS; gsp mutant cells, cAMP HTRF, 30 min; control for the full effect not named in the record; Potency, µM (doses to about 76.9 µM), without a hit: at the top dose activation (cAMP increase), most hits filed as activators; 340,000 tested, 0.13% active; active = well fitted activation curve with a large enough effect; inconclusive = small, poorly fitted or top-dose-only effect, or another doubt; inactive = no such curve, though single readings can be large or run the other way; cell line not stated here;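 further: phosphodiesterase inhibitor Ro 20-1724 added with compounds to block cAMP breakdown; potency means the concentration at half of the fitted maximal effect; nearly all actives have a fitted effect of over 60% in size; about a fifth of the inactives were tested at one dose only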
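Cells in DMEM/10% FBS with G418 were pretreated with compounds in DMSO plus […] (300 uM stock) for 30 min at 37C. cAMP was measured by HTRF (cAMP-d2 plus anti-cAMP antibody-K) after 30 min at room temperature.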
TRPV1 PAM – HTS Assay for Compounds that Act as Potentiators of the Vanilloid Receptor 1; Transient receptor potential cation channel subfamily V member 1 (Homo sapiens), Q8NER1; TRPV1-expressing cells, Fluo-8 calcium influx, capsaicin EC20 potentiation; host cell line not named in the record; control for the full effect not named in the record; potentiation, % at 8.33 µM; 320,000 tested, 0.02% active; active means potentiation above 80%; inconclusive means 30% to 80%; inactive means below 30%; further: 0% is about no effect
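Cells expressing TRPV1 were dye-loaded with Fluo-8 and read kinetically: 10 s baseline, 3 min after compound (agonist portion), then 2 min after EC20 capsaicin (allosteric enhancer portion). Calcium-bound dye fluorescence at 480/520 nm.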
Sfp PPTase inh – qHTS Assay for Inhibitors of Bacillus subtilis Sfp phosphopantetheinyl transferase (PPTase) | 310,000 tested, 3.5% active | AID 1490, 2009 | Biochemical Sfp PPTase activity, qHTS | Potency, µM, without a hit: max response, negative = inhibition, actives largely listed as inhibitors | 4'-phosphopantetheinyl transferase ffp (Bacillus subtilis), Q9F4F7; active means well fitted inhibition curve with a large enough effect; inconclusive means small, poorly fitted or top-dose-only effect, or another doubt; inactive means no such curve, though single readings can be large or run the other way;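 further: the enzyme is Sfp with the accession as filed and its product quenches rhodamine fluorescence; potency means the concentration at half of the fitted maximal effect; 0% = enzyme reaction without inhibitor and -100% = no enzyme wells; top concentration of the series not given in the record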
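With Hepes-Na pH 7.6 buffer containing 10 mM MgCl2, Sfp (15 nM) modified BHQ-2-YbbR (12.5 uM) using rhodamine-CoA (5 uM). Two reads 30 minutes apart at 525/598 nm yielded each well's rate.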
ClpP mod – qHTS Assay for Activators of ClpP; ATP-dependent Clp protease proteolytic subunit (Bacillus subtilis (strain 168)), P80244; purified B. subtilis ClpP, FRET peptide cleavage, 20 min; Potency, µM (series often up to 57.5 µM), without a hit: at the top dose activity change, negative = active; 340,000 tested, 1.9% active; AID 651965, 2013; active = well fitted falling curve with a large enough effect; inconclusive = small, poorly fitted or top-dose-only effect; inactive = no such curve, though single readings can be large or run the other way; further: potency means the concentration at half of the fitted maximal effect; the source files actives as falling curves though it sought activators and does not explain the sign; nearly all actives have a fitted effect of over 65% in size; many hits overshoot -100%
Target sequence (P80244 whole entry, looked up): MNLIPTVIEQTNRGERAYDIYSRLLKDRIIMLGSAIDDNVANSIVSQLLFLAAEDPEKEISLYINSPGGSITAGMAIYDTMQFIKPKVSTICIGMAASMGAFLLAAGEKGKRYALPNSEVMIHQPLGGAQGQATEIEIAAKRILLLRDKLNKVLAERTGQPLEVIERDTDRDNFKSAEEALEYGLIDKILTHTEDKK
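Purified B. subtilis ClpP, 10 microg/mL final in Tris/HCl pH8 with KCl, BSA, glycerol and Tween-20, cleaved an Abz/nitrotyrosine-quenched decapeptide. Fluorescence (ex 320, em 430) was read at 0 and 20 min at room temperature. Delta was normalized to 5.8 microM ADEP and DMSO/no-enzyme controls.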
gsp antag – qHTS for Antagonists of gsp, the Etiologic Mutation Responsible for Fibrous Dysplasia/McCune-Albright Syndrome: qHTS. AID 624288, 2012. Potency, µM (highest dose often 76.9 µM), for inactives: at the highest dose activity change, negative = inhibition, actives largely listed as inhibitors. gsp-mutant cells, cAMP HTRF, 30 min; control for the full effect not named in the record. 340,000 tested, 0.4% active; active = falling curve of any shape with a large fitted effect; inconclusive = falling curve, mostly with a smaller effect; inactive = flat or rising curve; cell line not stated here;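 further: intracellular cAMP measured with PDE inhibitor Ro 20-1724 present during compound exposure; potency means the concentration at half of the fitted maximal effect; on the % scale 0 is the no-effect control and ±100 the full control effect; nearly all actives have a fitted effect of over 65% in size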
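HTRF cAMP read-out (cAMP-d2 plus anti-cAMP antibody-K in lysis buffer, 30 min RT). Before lysis, cells are exposed to compounds with […] for 30 min at 37C in DPBS containing Ca/Mg, BSA and Tween 20.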
D2 potentiator – Beta-Arrestin HTS for Positive Allosteric Modulators of the Human D2 Dopamine Receptor: Potentiators | D(2) dopamine receptor (Homo sapiens), P14416 | DiscoveRx D2 beta-arrestin cells, luminescence, 90 min; 100% = 57 uM dopamine signal | potentiation, % (concentration not given with the values) | AID 624464, 2012 | 360,000 tested, 0.23% active; active = potentiation of 50% or more; inconclusive = 30% to 50%; inactive = 30% or less;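 further: compound concentration not given in the record; tested on top of an EC20 dose of dopamine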
Target sequence (P14416 whole entry, looked up): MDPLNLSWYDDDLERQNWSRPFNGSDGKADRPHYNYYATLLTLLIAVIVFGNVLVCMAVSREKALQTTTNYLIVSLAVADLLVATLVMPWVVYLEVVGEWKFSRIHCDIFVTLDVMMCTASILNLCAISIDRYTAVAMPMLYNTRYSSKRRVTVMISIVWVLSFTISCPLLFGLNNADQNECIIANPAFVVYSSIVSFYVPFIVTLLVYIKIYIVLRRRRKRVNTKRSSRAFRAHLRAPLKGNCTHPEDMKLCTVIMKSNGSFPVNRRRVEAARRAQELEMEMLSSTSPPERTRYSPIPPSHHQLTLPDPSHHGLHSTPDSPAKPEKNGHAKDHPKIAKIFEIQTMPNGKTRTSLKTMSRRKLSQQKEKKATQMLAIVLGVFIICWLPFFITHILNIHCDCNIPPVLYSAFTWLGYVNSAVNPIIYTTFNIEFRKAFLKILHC
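D2 cells co-treated with compound plus 50 nM dopamine (EC20) for 90 min at 37 deg C to detect potentiation. Beta-arrestin recruitment was read as enzyme-fragment luminescence after 1 h at ambient temperature. Full response was set by 57 uM dopamine.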
Menin MLL FP FL – qHTS Assay for Inhibitors Targeting the Menin-MLL Interaction in MLL Related Leukemias: Competition With Fluorescein Labeled MLL-derived Peptide | 290,000 tested, under 10 active | AID 1766, 2009 | Fluorescence polarization, fluorescein-MLL peptide displacement from menin | FP activity change, % at 61.4 µM; inconclusive = falling polarisation curve, or a change in total fluorescence; inactive = total fluorescence flat and polarisation flat or rising; no compound was filed as active; the % refers to the polarisation; negative = inhibition;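 further: % of control where 0% means no effect; inhibitors lower the polarisation; unlabelled MLL peptide was the positive control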
The depositor's hits bear a star; ? = inconclusive; / = not tested or not shown; [ ] = another dose, or the depositor's remark.

SMILES | gsp agonist | TRPV1 PAM | Sfp PPTase inh | ClpP mod | gsp antag | D2 potentiator | Menin MLL FP FL
CCn1nc(C(=O)Nc2ccc(N3CCOCC3)cc2)c2ccccc2c1=O | 29% | 0 | / | 0.5% | -6% | 9 | /
CC1(C)Cc2c(cnn2-c2ccccc2)C(NC(=O)CCc2ccncc2)C1 (stereo not given) | -4%[15.4 µM] | -16 | 12% | 1.2% | 2% | 5 | -0.9
O=c1cc(C(F)(F)F)[nH]c2c(C(F)(F)F)cccc12 | 6% | 3 | 15% | 4.4% | ? | 7 | -1.6
O=C1COc2ccc(C(=O)COC(=O)c3cc(S(=O)(=O)NCc4ccccc4)ccc3O)cc2N1 | 2% | 1 | 21% | -6.6% | 1% | 0 | 12
CN(C)c1ccccc1C(=O)N1CCCC(C(=O)c2ccc3ccccc3c2)C1 (stereo not given) | -5%[15.4 µM] | 1 | -18% | / | -125% | 5 | 0.5
COc1ccc(-n2nc(C(=O)c3cccs3)cc(-c3nc4ccccc4[nH]3)c2=N)cc1 | -10% | 1 | 26% | 2.0% | 10% | 10 | ?
CCCC(=O)Nc1ccccc1NC(C)=O | 0% | -28 | 25% | -5.3% | 16% | 13 | 6.2
COc1ccc(NC(=O)CSc2nnc(-c3cccs3)n2Cc2ccco2)cc1OC | 12% | 1 | 22µM* | -2.5% | -14% | -4 | 3.0
O=C(c1cncs1)N1CCCC(CNS(=O)(=O)c2cccs2)C1 (stereo not given) | -29% | 1 | 7% | 1.6% | 8% | -5 | 5.9
O=C(COC(=O)c1ccc(OC(F)(F)F)cc1)Nc1ncccn1 | -48%[inhibitor] | / | / | -7.7% | -2% | 0 | /
COc1ccc(N(CC(=O)Nc2ccc3c(c2)OCCO3)S(=O)(=O)c2cccnc2)cc1 | -50%[inhibitor] | 11 | 18% | -0.2% | -25% | 1 | 4.0
COCC(C)n1c(C)cc(C(=O)COc2ccc(C)nc2[N+](=O)[O-])c1C (stereo not given) | -11%[15.4 µM] | 2 | ? | / | 12% | -1 | -5.5
COc1ccc(CN2CCCCC2c2cccnc2)c(OC)c1C (stereo not given) | -21% | -4 | 5% | 0.7% | -12% | 6 | 0.7
O=C(CCC1CCCC1)c1c(O)c2ccccc2oc1=O | -25% | -1 | 26% | 0.2% | -35% | -5 | 7.5
COc1ccc(/C=N/NC(=O)c2ccccc2O)cc1COc1ccccn1 | 27% | -1 | 18% | -4.0% | -16% | -17 | 3.6
COc1ccc(-c2nc3ccccc3o2)cc1OC | -35%[inhibitor] | 2 | -6% | 3.9% | -15% | 1 | 3.4
COc1ccc(-n2c(C)nnc2SCC(=O)N2C(C)CCCC2C)cc1 (stereo not given) | -32% | / | -5% | 0.4% | -9% | -13 | 1.9
O=C(Nc1ccc2oc(-c3ccccc3F)nc2c1)c1ncn[nH]1 | -15% | -1 | 5% | 4.5% | -15% | 11 | 3.6
CCN(CC)S(=O)(=O)c1cc([N+](=O)[O-])ccc1NNC(=O)Nc1ccccc1OC | -9% | -1 | 50µM* | 1.0% | -29% | ? | 3.3
NS(=O)(=O)c1cc(C(=O)OCC(=O)N2CCc3ccccc3C2)ccc1Cl | 3% | 2 | / | -2.8% | -6% | -13 | /
Cc1cc(C)c(C2C(C#N)=C(N)Oc3n[nH]c(C)c32)cc1CN1CCOCC1 (stereo not given) | 29% | 19 | 9% | -0.4% | -1% | -21 | -2.3
COc1ccc(NS(=O)(=O)c2ccc(C)c(C(=O)N3CCC3)c2)cc1 | 5%[15.4 µM] | -6 | / | 1.3% | 12% | -1 | /
CC(=O)[C@@]1(O)CC[C@H]2[C@@H]3C[C@H](C)C4=CC(=O)C=C[C@]4(C)[C@@]3(F)[C@@H](O)C[C@@]21C | / | -2 | 11% | -2.6% | -9% | -5 | 0.8
O=c1cc(CN2CCc3ccccc3C2)nc2sccn12 | 20% | -4 | -7% | / | 3% | -10 | -0.8
Cn1c2ccccc2c2cc(C(=O)OCC(=O)N3CC(=O)Nc4ccccc43)sc21 | -2% | -7 | -14% | ? | -9% | -7 | 11

Additional records follow.
SMILES | gsp agonist | TRPV1 PAM | Sfp PPTase inh | ClpP mod | gsp antag | D2 potentiator | Menin MLL FP FL
COc1cc(C(=O)NNC(=O)Nc2ccc([N+](=O)[O-])cc2)cc(OC)c1OC | 28% | -18 | 0% | / | 9% | 3 | -2.1
COc1ccc(S(=O)(=O)/C(C#N)=C/Nc2ccc(NC(C)=O)cc2)cc1 | -8% | 1 | 16% | -13% | 5% | -3 | ?
COc1nccc(Nc2ccccc2)c1C#N | 7% | -2 | 11% | -0.1% | 3% | 9 | 2.8
CCc1ccc(-c2cc(C(F)(F)F)n3nc(C(=O)Nc4cnn(Cc5ccc(C)cc5)c4)cc3n2)s1 | 7% | -13 | ? | -16% | 15% | -3 | 0.9
Cc1ccccc1NC(=O)c1oc(=O)c2ccccc2c1-c1ccccc1 | 6%[15.4 µM] | -19 | -26% | -3.4% | -42% | -8 | -0.6
O=C1C(=O)N(CCCn2ccnc2)C(c2ccc(Cl)cc2)/C1=C(\O)c1ccc2c(c1)OCCO2 (stereo not given) | ? | 0 | 14% | 2.7% | 11% | -15 | /
COc1cccc(/C=N/n2c(COc3ccccc3)n[nH]c2=S)c1OC | 4% | -10 | -21% | 1.1% | -21% | -11 | 11
CCOC(=O)N1CCN(C(=O)CCn2nc(-c3ccc(Cl)cc3)ccc2=O)CC1 | -16% | 5 | -10% | -9.5% | -15% | 8 | -0.2
CCCCCCC/C=N/Nc1nnc(Cc2ccccc2)c(=O)[nH]1 | -18% | -6 | 5% | / | 4% | -2 | -1.3
C/C(N)=C(/C#N)C(=O)CSc1nc2ccccc2c(=O)n1Cc1ccc(F)cc1 | -2% | -7 | 71µM* | 0.4% | -17% | -4 | 2.5
Cc1ccc(Nc2cc(C)nc3nc(C)nn23)c(C)c1 | -56%[inhibitor] | 16 | 17% | -4.3% | -5% | -4 | 0.9
O=C(CN1C(=O)NC2(CCCC2)C1=O)NCCN1C(=O)S/C(=C\c2ccccc2F)C1=O | 14%[15.4 µM] | ? | / | 32µM* | 2% | 0 | /
O=C(NCc1cccs1)C1CCCN1C(=O)Nc1ccccc1Cl (stereo not given) | 10% | -3 | 18% | / | 10% | -1 | -0.6
CC1(C)CC(=O)C(CC(=O)NC(=O)NCc2ccccc2)=C(O)C1 | ? | -23 | -20% | -1.8% | -1% | 11 | 0.8
CCN(CC(=O)NCCc1ccc(F)cc1)Cc1nc2ccccc2c(=O)[nH]1 | 8% | -4 | -1% | -0.7% | 2% | -18 | 4.1
COc1ccccc1NC(=O)c1ccccc1-c1nc(-c2ccccc2OC)no1 | -45%[inhibitor] | 2 | -17% | -0.8% | -31% | 1 | 2.3
NCCCC(=O)N1c2ccccc2Sc2ccccc21 | 26% | / | 5% | 0.6% | 7% | -7 | 3.0
COc1ccc(N2CCN(C(=O)CSc3nnnn3-c3ccc4c(c3)OCCO4)CC2)cc1 | -13% | -20 | 16% | 6.3% | ? | 14 | 3.6
Cc1cc(OCc2cc(C(=O)N(C)C3CCOCC3)no2)cc(C)c1Cl | 14% | -11 | -14% | -1.9% | -9% | 9 | -0.1
Cc1ccc(S(=O)(=O)N(CC(=O)N2CCOCC2)c2ccc(Br)cc2)cc1 | -2% | -11 | 13% | / | 0% | -7 | 2.8
O=C(NN1CCOCC1)c1ccccc1Br | -17% | -7 | 12% | / | 10% | -2 | -0.2
Cc1cccc(N2C(=O)CC(N3CCN(c4ccccn4)CC3)C2=O)c1 (stereo not given) | -2%[15.4 µM] | 4 | 20% | / | 10% | -8 | -5.0
CCOc1ccc(NC(=O)CSc2nnc(C3CC3)n2C)cc1 | 8% | 3 | 8% | / | 1% | -4 | -2.3
CN1CCN(C2=C(NS(=O)(=O)c3cccs3)C(=O)c3ccccc3C2=O)CC1 | -7%[15.4 µM] | -5 | 3% | / | -7% | -6 | 2.8

Screening results from PubChem BioAssay.

Not a hit list (roughly 5.1% active in at least one column).
